Screens (PubChem)
Choline anaer gr – blocks anaerobic gram-negative growth on choline; 55,000 compounds, 0.2% hits; Gram-negative bacterium anaerobic choline minimal medium, absorbance growth; stronger effect = lower value; many inactives read as strong as hits in the columns shown; calls only;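 active means growth z-score on choline under -2 at 7 or 20 h with little or no fall on glycerol, limits in tiers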;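 further: stock transfer was 300 nL into about 50 µL; the organism is E. coli; final concentration not given here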
Choline anaer gr early – further read-out of Choline anaer gr, marked with its call; z-score; measured here: choline growth z-score, timepoint 1;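 score of optical density at 7 h as mean of two plates; lower means less growth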
Starred values were filed as active, the others as inactive; i = inactive; & = joins results of further samples.

SMILES	Choline anaer gr	Choline anaer gr early
COC(=O)c1sc(NC(=O)CSc2cc(-c3ccccc3)ncn2)nc1C	i	1.1
O=c1cc(CNc2ccc(F)cc2)nc2nc(-c3ccc(F)cc3)[nH]n12	i	1
CCCCn1c(=O)c2c(nc3n2CCN3c2ccc(OC)cc2)n(C)c1=O	i	-0.98
CC(=O)Nc1cccc(-c2nc(Cn3c(C)nc4ccccc4c3=O)no2)c1C	i	0.37
CCC(C(=O)Nc1c2c(nn1-c1ccc(Cl)cc1)CSC2)c1ccccc1 (configuration not stated)	i	0.58
Cn1c(=O)c2c(C(=O)NCCCN3CCCCC3)cc(=O)n(C)c2n(C)c1=O	i	-0.39
CN(C)c1nc2ncnc(SCC(=O)Nc3ccc4c(c3)CCC4)c2s1	i	0.08
CCOc1ccc(N2C(=O)c3cc4occc4n3CC2(C)C(=O)NC2CCCCC2)cc1 (configuration not stated)	i	-2
O=C(c1cc2cccnc2n(Cc2ccc(F)cc2)c1=O)N1CCCCC1	i	0.51
COc1ccccc1C1C2=C(CC(c3ccccc3O)CC2=O)Nc2onc(C)c21 (configuration not stated)	i	-1.5
CC(=O)N1CCc2cc(Br)c(S(=O)(=O)NCCN3CCC(Cc4ccccc4)CC3)cc21	i	-0.08
Clc1ccc(Nc2nnc(Cc3ccncc3)c3ccccc23)cc1	i	0.45&-0.22
Cc1ccc(-c2noc(-c3ccc(Nc4ccc5c(c4)OCCO5)nn3)n2)cc1	i	0.91
CCSc1nn(CC(=O)Nc2ccc3c(c2)OCCO3)c(N)c1S(=O)(=O)c1ccc(OC)cc1	i	1.1
CCC(C(=O)N1CCC(C)CC1)n1cnc2oc(C)c(C)c2c1=O (configuration not stated)	i	0.12
CN(C)c1cc(NC(=O)CNC(C)(C)C)c(O)c2c1C[C@H]1C[C@@H]3C(C(=O)C(C(N)=O)=C(O)[C@H]3N(C)C)C(=O)C1=C2O (some centres not stated)	i	0.03
CC1(C(=O)NC2CCCC2)Cn2c(c(-n3cccc3)c3ccccc32)C(=O)N1CC1CCCO1 (configuration not stated)	i	-0.48
CN1C(=O)C(C)(C)c2cc(S(=O)(=O)N3CCCC(CN4CCc5ccccc5C4)C3)ccc21 (configuration not stated)	i	0.76
Fc1ccc(Nc2cc(-c3ccccc3)nc3nc(-c4cccnc4)nn23)cc1F	i	0.2
CC(C)Nc1nc(-c2nnc(-c3ccccc3)o2)nc2ccccc12	i	-0.36
Cc1cc(-c2c(C)sc(C)c2S(=O)(=O)NCC(C)c2ccccc2)n[nH]1 (configuration not stated)	i	0.65
Cc1ccc(COC2CN(C(=O)c3ccc(C)cc3)C2)cc1	i	-1.6
Cc1ccc(CNCCSc2nnnn2C)s1	i	0.2
COc1ccc(Nc2cc(C)c3cc(NC(=O)c4ccc(N(C)C)cc4)ccc3n2)cc1	i	2.1
CN(C)CCN1C(=O)c2ccccc2N(C)c2ccccc21	i	0.87&0.23
Cc1c(S(=O)(=O)N2CCN(c3cc(-c4ccc(F)cc4)ncn3)CC2)cnn1C(F)F	i	1.7
CCC1Oc2ccc(Cl)cc2N(CC(=O)N2CCN(c3c(C)n(C)c(=O)n(C)c3=O)CC2)C1=O (configuration not stated)	i	-0.36
Cn1cc(C(=O)NCC2CCCO2)c2[nH]c(=O)n(-c3ccccc3)c(=O)c21 (configuration not stated)	i	-0.81
CC(=O)N1c2ccc(S(=O)(=O)N3CCCCC3)cc2CC1C(=O)Nc1nc2ccccc2s1 (configuration not stated)	i	-0.91
O=C(C1CCCC1)N1CCN(c2ncnc3c2nnn3-c2ccccc2)CC1	i	0.88
CCn1cnc2c(=O)oc3ccc(S(=O)(=O)NCc4ccccc4)cc3c21	i	1.3
COCCCNC(=O)c1[nH]nc2c1CCc1ccccc1-2	i	0.15
O=C1CCCc2c1cnc1c(C(=O)NCc3cccc(Cl)c3)cnn21	i	-0.4
CCOC(=O)c1c(NC(=O)c2sc(C)nc2C)sc(C(=O)OC(C)C)c1C	i	-1.7
CCCCC(=O)N(Cc1ccc(-c2ccccc2-c2nn[nH]n2)cc1)[C@H](C(=O)O)C(C)C	i	-0.08&0.01
COc1ccc(C2=C(O)C(=O)N(c3ccc(F)cc3)C2c2ccccc2Cl)cc1 (configuration not stated)	i	0.67
O=C(NCC(c1ccc(Br)cc1)c1c[nH]c2ccccc12)c1ccccc1 (configuration not stated)	i	1.2
CN(C)c1ccc(-c2noc(Cc3ccc(Br)cc3)n2)cc1	i	1.6
CCCNC(=O)Nc1ccc(-c2noc(-c3ccsc3)n2)cc1	i	1.2
Cn1c(=O)c(-c2noc(C(=O)NCc3ccccn3)n2)nn(-c2ccccc2)c1=O	i	-1.3
CC(C)Cc1nnc(NC(=O)C2c3ccccc3Oc3ccccc32)s1	i	0.33
Cc1n[nH]c(=O)c2cc(S(=O)(=O)N3CCCCC3)cn12	i	1.1
Cc1cc(NC(=O)Nc2ccc3c(ccn3C)c2)sn1	i	0.06
CCCCn1c(C)c(C)c2c1ncn1nc(CSc3nc4ccccc4o3)nc21	i	0.44
Cc1ccc(-c2nc3nc(C)cc(N(C)CCO)n3n2)cc1	i	0.83
O=C(NCCN1CCCCC1)C1CCCN1c1nnc(N2CCCC2=O)s1 (configuration not stated)	i	-0.01
Cc1cc(Cl)ccc1S(=O)(=O)Nc1cc2c(cc1SC(C)C)n(C)c(=O)n2C	i	0.87
CCCn1c(=O)c2ccccc2n2c(SCC(=O)Nc3ccc(CC)cc3)nnc12	i	-0.04
CCCc1cc(C2CCCN2Cc2ccc(F)c(F)c2)no1 (configuration not stated)	i	0.92
Cc1ccc(C)c(NC(=O)N2CCC(c3nc(-c4ccccc4)no3)CC2)c1	i	0.18
(continued)
SMILES	Choline anaer gr	Choline anaer gr early
CC1(C(=O)NCc2ccccc2)CCN(C(=O)c2cccc(F)c2)CC1	i	-1.5
CCN1CCC(CCNC(=O)C2CCc3sc(C(=O)N4CCCC4)cc3C2)CC1 (configuration not stated)	i	-0.17
CCN(Cc1ccc(Cl)cc1)Cc1cc(=O)n2nc(C)sc2n1	i	-0.65
CC(C)CCN1C(=O)c2ccccc2CC1(C)C(=O)NC1CCC(C)CC1 (configuration not stated)	i	-0.53
Cc1ccc2nc(-c3ccccc3NC(=O)COc3ccccc3)ccc2c1	i	2.3
Cc1nn(-c2ccc3nnc(C)n3n2)c2c1C(c1cc(F)cc(F)c1)CC(=O)N2 (configuration not stated)	i	-0.46
CCCn1cnc2nc(CSc3ccccc3NC(=O)c3ccccc3C)cc(=O)n21	i	-0.09
Cc1nnc2ccc(-n3ncc4c3NC(=O)CC4c3ccc(OCCc4ccccc4)cc3)nn12 (configuration not stated)	i	1.2
CN(C)C(=O)COc1ccc(-c2nc(-c3ccccc3)no2)cc1	i	0.13
Cc1ccc2cc(-c3noc(CCCC(=O)Nc4ccccc4C)n3)c(=O)[nH]c2c1	i	0.74
O=C1c2ccccc2C(Nc2ccc(F)cc2)N1Cc1ccc2c(c1)OCO2 (configuration not stated)	i	0.9
Cc1sc(-c2nc(-c3ccccc3)no2)cc1S(=O)(=O)N(C)Cc1ccccc1	i	-0.39
COc1cc(-c2nc3cnc(Br)cn3c2Nc2ccc3c(c2)OCO3)ccc1O	i	0.65
CN(C)C(=O)c1cc2sc(Cl)cc2n1C	i	-1.2
O=c1c2[nH]c3ccccc3c2ncn1CCc1ccccc1	i	0.53
O=C(CCc1nnc2n(Cc3ccccc3)c(=O)c3ccccc3n12)NC1CCN(Cc2ccccc2)CC1	i	0.46
O=C(Cc1c(Sc2ccccc2)[nH]c2ccccc12)N1CCN(c2ccccn2)CC1	i	-0.8
Fc1ccc(-c2nn3c(-c4ccncc4)nnc3s2)cc1Br	i	-0.17
O=C(c1ccc(-n2nnc3cccnc32)cc1)N1CCOCC1	i	0.32
O=C(O)c1cc(N2CCC(N3CCCCC3)CC2)ccc1NC(=O)C1CCC1	i	0.44
Cc1nn(CC(=O)N2CCCC2)c(C)c1S(=O)(=O)N1CCCC(C(=O)N2CCCCC2)C1 (configuration not stated)	i	-0.57
CC(C)CCN1C(=O)c2cc3occc3n2CC1(C)C(=O)NC1CCC(C)CC1 (configuration not stated)	i	0.46
NC(=O)c1ccccc1NC(=O)c1ccc(=O)n(Cc2ccccc2Cl)c1	i	-0.12
CC1CCN(c2ccc(-c3noc(C(=O)NCCc4nc5ccccc5[nH]4)n3)cc2)CC1	i	0.7
CCC1CCCCN1C(=O)c1ccc(NC(C)=O)o1 (configuration not stated)	i	0.79
CC(C)CNC(=O)N1CCCC1c1cc(C(C)C)no1 (configuration not stated)	i	-0.4
COC(=O)c1ccc(NC(=O)C2CCCN2S(=O)(=O)c2ccc(F)cc2)cc1 (configuration not stated)	i	-1.3
CC(C)n1cnc2nc(CSc3ccc(NC(=O)COc4ccccc4Cl)cc3)cc(=O)n21	i	-0.14
CC1(C(=O)NC2CCCCC2)Cn2c(cc3occc32)C(=O)N1Cc1ccc2c(c1)OCO2 (configuration not stated)	i	-0.11
Cc1ccc(NS(=O)(=O)c2cn(C)cn2)cc1C	i	-0.96
COc1ccc(-c2noc(-c3nnn(-c4cccc(F)c4)c3N)n2)cc1	i	-0.97
Cc1ccc(NC(=O)c2c(O)c3c4c(sc3[nH]c2=O)CCCC4)cc1C	i	-1.3
COc1cc(N2CCn3c(nc4cc(Cl)ccc43)C2)ccc1N	i	-2
O=C(CC1CCCC1)N1CCC(Nc2ncnc3c2CCC3)C1 (configuration not stated)	i	0.2
OCC(O)C(O)CO (configuration not stated)	i	0.18
Cc1cc(C)cc(NC(=O)N2Cc3c(sc4c3CCN(C)C4)-n3cccc3C2C)c1 (configuration not stated)	i	0.1
CCC(CC)C(=O)N1CCC(N2CCN(Cc3ccc(F)cc3)C(=O)C2=O)CC1	i	-0.17
C=CCn1c(SCc2nc(-c3ccccc3)no2)nc2cc3c(cc2c1=O)OCO3	i	0.49
CCc1ccc(NC(=O)CN(C)S(=O)(=O)c2ccc3nc(-c4ccccc4)[nH]c3c2)cc1	i	0.67
O=c1c(S(=O)(=O)c2cccc(F)c2)c[nH]c2ccc(F)cc12	i	-1.6
COC(=O)C1=C(c2ccccc2)c2cc(Cl)ccc2S(=O)(=O)N1CC(=O)Nc1ccc(F)cc1F	i	0.95
CCCNC(=O)N1Cc2c(sc3c2CCCC3)-n2cccc2C1c1ccc(OCC)cc1 (configuration not stated)	i	2
Nc1nnc(SCc2nnc(-c3ccccc3)o2)s1	i	-0.6
CCOC(=O)c1c(NC(=O)CS(=O)(=O)c2ccc(Cl)cc2)sc2c1CCCC2	i	1.2
CN(C)CCCNC(=O)c1sc2ncccc2c1-n1cccc1	i	-0.95
CC(C)CN(CCCNC(=O)c1ccc(N2CCCC2=O)cc1)CC(C)C	i	-0.25
CC(=O)OC1CC2CCC3C(CCC4(C)C3CC([N+]3(C)CCCCC3)C4OC(C)=O)C2(C)CC1[N+]1(C)CCCCC1 (configuration not stated)	i	0.61
Cc1cccc(N2CCN(C(=O)c3ccc(Cn4c(=O)c5cccn5c5cccnc54)cc3)CC2)c1C	i	-0.9
CCN(CCCNC(=O)C1CCN(c2ncnc3c2oc2ccccc23)CC1)c1ccccc1	i	1.1
COCCN1CCc2nc(SCc3ccc(C(C)(C)C)cc3)[nH]c(=O)c2C1	i	-0.18
Next entries
SMILES	Choline anaer gr	Choline anaer gr early
CCN1CCN(C(=O)c2cnc3sccn3c2=O)CC1	i	-0.36
COc1ccc(C2N=C(Nc3ccc(C(C)C)cc3)Nc3nc(C)cc(=O)n32)cc1OC (configuration not stated)	i	-0.84
CCCN(Cc1ccc(C)cc1)Cc1cc(=O)n2nc(C3CC3)sc2n1	i	0.61
CCN(CC)C(=O)c1cc2c(=O)oc3ccccc3c2n1CC	i	-0.57
Cc1nc2nc(-c3ccc(C(C)(C)C)cc3)nn2c(C)c1CC(=O)N1CCCCC1	i	-0.04
Cc1ccc(COCc2nn(C)c3c2CN(C(=O)c2ccc(C(C)(C)C)cc2)CC3)cc1	i	0.48
Cc1onc(-c2ccccc2Cl)c1C(=O)N1CCN(c2ccc(N3CCCC3)nn2)CC1	i	-0.55

4 structures from above, ordered by molecular weight, rising:
SMILES	Choline anaer gr	Choline anaer gr early
CCN(CC)C(=O)c1cc2c(=O)oc3ccccc3c2n1CC	i	-0.57
CCCN(Cc1ccc(C)cc1)Cc1cc(=O)n2nc(C3CC3)sc2n1	i	0.61
Cc1nc2nc(-c3ccc(C(C)(C)C)cc3)nn2c(C)c1CC(=O)N1CCCCC1	i	-0.04
Cc1onc(-c2ccccc2Cl)c1C(=O)N1CCN(c2ccc(N3CCCC3)nn2)CC1	i	-0.55

Among those listed so far, these have an NH in an aromatic ring.
SMILES	Choline anaer gr	Choline anaer gr early
O=c1cc(CNc2ccc(F)cc2)nc2nc(-c3ccc(F)cc3)[nH]n12	i	1
Cc1cc(-c2c(C)sc(C)c2S(=O)(=O)NCC(C)c2ccccc2)n[nH]1 (configuration not stated)	i	0.65
Cn1cc(C(=O)NCC2CCCO2)c2[nH]c(=O)n(-c3ccccc3)c(=O)c21 (configuration not stated)	i	-0.81
COCCCNC(=O)c1[nH]nc2c1CCc1ccccc1-2	i	0.15
CCCCC(=O)N(Cc1ccc(-c2ccccc2-c2nn[nH]n2)cc1)[C@H](C(=O)O)C(C)C	i	-0.08&0.01
O=C(NCC(c1ccc(Br)cc1)c1c[nH]c2ccccc12)c1ccccc1 (configuration not stated)	i	1.2
Cc1n[nH]c(=O)c2cc(S(=O)(=O)N3CCCCC3)cn12	i	1.1
Cc1ccc2cc(-c3noc(CCCC(=O)Nc4ccccc4C)n3)c(=O)[nH]c2c1	i	0.74
O=c1c2[nH]c3ccccc3c2ncn1CCc1ccccc1	i	0.53
O=C(Cc1c(Sc2ccccc2)[nH]c2ccccc12)N1CCN(c2ccccn2)CC1	i	-0.8
CC1CCN(c2ccc(-c3noc(C(=O)NCCc4nc5ccccc5[nH]4)n3)cc2)CC1	i	0.7
Cc1ccc(NC(=O)c2c(O)c3c4c(sc3[nH]c2=O)CCCC4)cc1C	i	-1.3
CCc1ccc(NC(=O)CN(C)S(=O)(=O)c2ccc3nc(-c4ccccc4)[nH]c3c2)cc1	i	0.67
O=c1c(S(=O)(=O)c2cccc(F)c2)c[nH]c2ccc(F)cc12	i	-1.6
COCCN1CCc2nc(SCc3ccc(C(C)(C)C)cc3)[nH]c(=O)c2C1	i	-0.18

Not all compounds are listed; count on the stated rates, not on these rows.
